Screening data (PubChem BioAssay)
gsp antag: qHTS for Antagonists of gsp, the Etiologic Mutation Responsible for Fibrous Dysplasia/McCune-Albright Syndrome: qHTS; gsp-mutant cells, cAMP HTRF, 30 min; control for the full effect not named in the record; Potency, µM (series often up to 76.9 µM), for the others: top-dose activity change, negative = inhibition, hits mostly inhibitors; actives 0.4% (n = 340,000); active = falling curve of any shape with a large fitted effect; inconclusive = falling curve, mostly with a smaller effect; inactive = flat or rising curve; cell line not stated here;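 further: intracellular cAMP measured with PDE inhibitor Ro 20-1724 present during compound exposure; potency means the concentration at half of the fitted maximal effect; on the % scale 0 is the no-effect control and ±100 the full control effect; nearly all actives have a fitted effect of over 65% in size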
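HTRF cAMP read-out (cAMP-d2 plus anti-cAMP antibody-K in lysis buffer, 30 min RT). Before lysis, cells are exposed to compounds with […] for 30 min at 37C in DPBS containing Ca/Mg, BSA and Tween 20.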
TRPML1 agonist: qHTS for Agonists of the Human Mucolipin Transient Receptor Potential 1 (TRPML1) | Mucolipin-1 (Homo sapiens), Q9GZU1 | TRPML1-expressing cells, Ca2+ dye fluorescence, FDSS; host cell line not named in the record; reference of the full effect not given here | activation, % (concentration not given with the values) | actives 0.12% (n = 410,000); in the data active = activation above about 50%; inconclusive = about 30% to 50%; inactive = below about 30%; further: 0% is about no effect; the text of the record puts the active cut at 80%
Target sequence (Q9GZU1 whole entry, looked up): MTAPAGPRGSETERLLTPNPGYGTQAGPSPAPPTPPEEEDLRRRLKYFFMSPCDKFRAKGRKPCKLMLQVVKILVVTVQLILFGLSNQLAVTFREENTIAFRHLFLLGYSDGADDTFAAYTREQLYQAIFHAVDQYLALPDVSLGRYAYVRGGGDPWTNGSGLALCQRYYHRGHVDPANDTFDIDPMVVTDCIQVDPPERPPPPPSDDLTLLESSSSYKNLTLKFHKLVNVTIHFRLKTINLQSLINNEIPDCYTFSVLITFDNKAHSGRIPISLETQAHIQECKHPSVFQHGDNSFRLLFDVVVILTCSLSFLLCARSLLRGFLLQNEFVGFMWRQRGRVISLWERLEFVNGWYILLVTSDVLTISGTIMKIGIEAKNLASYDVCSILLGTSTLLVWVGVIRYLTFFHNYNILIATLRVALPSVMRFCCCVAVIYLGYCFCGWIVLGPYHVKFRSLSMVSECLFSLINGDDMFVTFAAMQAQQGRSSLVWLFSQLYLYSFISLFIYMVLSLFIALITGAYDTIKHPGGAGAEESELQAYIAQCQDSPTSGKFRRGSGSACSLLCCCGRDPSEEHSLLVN
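TRPML1-DL cells, Tet-induced overnight (~16 h, 37 degrees C), loaded 45-90 min at room temperature with Ca8 no-wash calcium dye plus quencher. FDSS fluorescence: 10 s baseline, compound pin-transfer, 110 s agonist read, then EC80 54-4 (4uM final) and 110 s antagonist read.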
Menin MLL FP FL: qHTS Assay for Inhibitors Targeting the Menin-MLL Interaction in MLL Related Leukemias: Competition With Fluorescein Labeled MLL-derived Peptide. Fluorescence polarization, fluorescein-MLL peptide displacement from menin. AID 1766, 2009. FP activity change, % at 61.4 µM. 290,000 tested, under 10 active; inconclusive = falling polarisation curve, or a change in total fluorescence; inactive = total fluorescence flat and polarisation flat or rising; no compound was filed as active; the % refers to the polarisation; negative = inhibition;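 further: % of control where 0% means no effect; inhibitors lower the polarisation; unlabelled MLL peptide was the positive control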
ClpP mod: qHTS Assay for Activators of ClpP; ATP-dependent Clp protease proteolytic subunit (Bacillus subtilis (strain 168)), P80244; AID 651965, 2013; actives 1.9% (n = 340,000); Potency, µM (series often up to 57.5 µM), without a hit: at the top dose activity change, negative = active; purified B. subtilis ClpP, FRET peptide cleavage, 20 min; active = well fitted falling curve with a large enough effect; inconclusive = small, poorly fitted or top-dose-only effect; inactive = no such curve, though single readings can be large or run the other way; further: potency means the concentration at half of the fitted maximal effect; the source files actives as falling curves though it sought activators and does not explain the sign; nearly all actives have a fitted effect of over 65% in size; many hits overshoot -100%
Target sequence (P80244 whole entry, looked up): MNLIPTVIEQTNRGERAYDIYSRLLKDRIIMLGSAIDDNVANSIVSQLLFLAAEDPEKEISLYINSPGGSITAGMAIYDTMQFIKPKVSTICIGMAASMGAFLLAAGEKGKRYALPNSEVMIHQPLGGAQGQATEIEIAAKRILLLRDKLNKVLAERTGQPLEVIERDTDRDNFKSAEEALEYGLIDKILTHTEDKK
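ClpP 10 microg/mL final, pH 8 Tris/KCl buffer with BSA, glycerol, Tween-20; compound pinned in; FRET-FV substrate; RT 20 min; Ex320/Em430; ΔFRET vs ADEP 5.8 microM, DMSO, no enzyme.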
gsp ag: qHTS for Agonist of gsp, the Etiologic Mutation Responsible for Fibrous Dysplasia/McCune-Albright Syndrome: qHTS; gsp mutant cells, cAMP HTRF, 30 min; control for the full effect not named in the record; Potency, µM (top dose mostly 76.9 µM), for inactives: at the highest dose activation (cAMP increase), most hits filed as activators; actives 0.13% (n = 340,000); active = well fitted activation curve with a large enough effect; inconclusive = small, poorly fitted or top-dose-only effect, or another doubt; inactive = no such curve, though single readings can be large or run the other way; cell line not stated here;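 further: phosphodiesterase inhibitor Ro 20-1724 added with compounds to block cAMP breakdown; potency means the concentration at half of the fitted maximal effect; nearly all actives have a fitted effect of over 60% in size; about a fifth of the inactives were tested at one dose only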
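Cells in DMEM/10% FBS with G418 were pretreated with compounds in DMSO plus […] (300 uM stock) for 30 min at 37C. cAMP was measured by HTRF (cAMP-d2 plus anti-cAMP antibody-K) after 30 min at room temperature.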
TRPML1 blocker: qHTS for Inhibitors of the Human Mucolipin Transient Receptor Potential 1 (TRPML1); activity change, negative = inhibition, % (concentration not given with the values); actives 0.02% (n = 390,000); TRPML1-inducible cells, Ca2+ dye fluorescence, FDSS; stronger effect = lower value; inhibition of EC80 agonist-evoked calcium signal; in the data active means activity change below about -50%; inconclusive means about -30% to -50%; inactive means above about -30%;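 further: stimulus is agonist 54-4 at its EC80 concentration; on the % scale 0 is the no-effect control and ±100 the full control effect; compound concentration not given in the record; the text of the record puts the active cut at -80%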
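Tet-induced TRPML1-DL cells loaded with Ca8 no-wash calcium dye were read kinetically on FDSS. Compound addition was followed by EC80 agonist 54-4 (4 uM final); inhibition was read over 110 s.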
The depositor's hits bear a star; [ ] = another dose, or the depositor's remark. No enrichment for hits; about 2.1% have a hit in one of these screens.

`C#CCOCCOCCOCCNc1nc(N2CCN(C(=O)[C@H]([C@@H](C)CC)n3cc([C@@H](N)Cc4ccc(O)cc4)nn3)CC2)nc(N2CCN(C(=O)[C@H](Cc3ccc(O)cc3)n3cc([C@@H](N)C(C)CC)nn3)CC2)n1` (some centres not stated) gave gsp antag 2%, TRPML1 agonist -0.3, Menin MLL FP FL 3.6, ClpP mod -0.5%, gsp ag -3% and TRPML1 blocker -4.
O=c1cc(N2CCCCC2)c(-c2ccccc2)nn1Cc1cccc(Cl)c1 was read as gsp antag -9%, TRPML1 agonist 0.4, Menin MLL FP FL 0.3, ClpP mod -2.8%, gsp ag 28% and TRPML1 blocker -4.
For CN(C(=O)COC(=O)c1ccc2[nH]c3c(c2c1)CCCC3)C1CCS(=O)(=O)C1 (configuration not stated) the results were gsp antag 9%, TRPML1 agonist 1.7, Menin MLL FP FL 1.4, ClpP mod -8.0%, gsp ag 7% and TRPML1 blocker -2.
CCN(C(=O)c1cc2c(=O)oc3ccccc3c2s1)c1cccc(C(F)(F)F)c1 was read as TRPML1 agonist 0.4, ClpP mod -14% and TRPML1 blocker -8.
`Cc1n[nH]c(C)c1S(=O)(=O)Nc1ccc2c(c1)OCCO2` gave gsp antag 6%, TRPML1 agonist 0.3, Menin MLL FP FL -0.7, ClpP mod -3.1%, gsp ag -40% and TRPML1 blocker -8.
Screening Cc1ccc(C(=O)N2CCN(c3cccc(Cl)c3)CC2)cc1-n1c(C)nc2cccnc21 returned TRPML1 agonist 2.2, ClpP mod -0.1% and TRPML1 blocker 18.
[NH-]c1ncnc2c1N=C[N+]2=CC=CCO was read as gsp antag -12%, TRPML1 agonist -0.4, Menin MLL FP FL 0.6, ClpP mod -4.6%, gsp ag 7% and TRPML1 blocker 19.
`Cc1ccc(C)c(NC(=S)NC(C)C(c2ccccc2)N2CCN(C)CC2)c1` (configuration not stated) gave gsp antag -2%, TRPML1 agonist 0.3, Menin MLL FP FL -8.7, ClpP mod -1.0%, gsp ag 11%[15.4 µM] and TRPML1 blocker -7.
O=[N+]([O-])c1ccc(NC(=S)NCc2ccncc2)cc1 was read as gsp antag -5%, TRPML1 agonist 0.6, Menin MLL FP FL -0.4, gsp ag -24% and TRPML1 blocker 3.
Screening COc1ccc(C(C)NC(=O)Cc2ccc(Br)cc2)cc1 (configuration not stated) returned gsp antag 5%, TRPML1 agonist 0.8, Menin MLL FP FL 3.7, ClpP mod 1.9%, gsp ag -3% and TRPML1 blocker -20.
CCOC(=O)c1sc(NC(=O)CCCCCN2C(=O)c3cccc4cccc(c34)C2=O)nc1C was read as gsp antag 1%, TRPML1 agonist 0.3, Menin MLL FP FL 1.1, ClpP mod -3.8%, gsp ag -62%[inhibitor] and TRPML1 blocker -25.
`COc1ccc(NC(=O)CSc2ncnc3c2nnn3-c2ccc(F)cc2)c(OC)c1` gave gsp antag 6%, TRPML1 agonist -0.2, Menin MLL FP FL 0.1, gsp ag -3% and TRPML1 blocker -1.
O=C(CNc1ccccc1)N/N=C/c1ccc([N+](=O)[O-])cc1 was read as gsp antag -5%, TRPML1 agonist 0.9, Menin MLL FP FL -1.3, ClpP mod -0.6%, gsp ag -5% and TRPML1 blocker -8.
For COc1cccc2c(=O)n(CC(=O)Nc3ccc(F)cc3F)ccc12 the results were gsp antag -4%, TRPML1 agonist -0.7, Menin MLL FP FL 0.0, ClpP mod inconclusive, gsp ag -41%[inhibitor] and TRPML1 blocker -11.
Screening O=C1NC[C@H](c2ccccc2)N(CCC23CC4CC(CC(C4)C2)C3)C1=O returned gsp antag -7%, TRPML1 agonist -0.2, ClpP mod -3.1% and TRPML1 blocker -19.
`CCCc1cc(=O)[nH]c(SCC(=O)Nc2ccc3ccccc3c2)n1` gave gsp antag -15%, TRPML1 agonist -0.2, ClpP mod -3.5%, gsp ag 11% and TRPML1 blocker 54.
`COc1ccc(S(=O)(=O)N2CCN(C(=O)c3ccco3)CC2)cc1OC` gave gsp antag -1%, TRPML1 agonist 0.0, Menin MLL FP FL 0.8, ClpP mod -0.2%, gsp ag 9% and TRPML1 blocker 14.
For CC(Nc1ccc(Br)cn1)c1cc(Cl)ccc1O (configuration not stated) the results were gsp antag -4%, TRPML1 agonist 1.8, Menin MLL FP FL 3.2, ClpP mod -1.0%, gsp ag -27% and TRPML1 blocker 44.
CN(Cc1ccccc1)S(=O)(=O)c1ccc(N2CCOCC2)nc1 was read as gsp antag -1%, TRPML1 agonist -0.2, Menin MLL FP FL -1.9, gsp ag -12%[15.4 µM] and TRPML1 blocker -4.
COc1cc2c(c(OCC(=O)NC(C)C)c1)C(=O)O[C@@H](C)CCCC(=O)CCCCC2 was read as gsp antag -5%, Menin MLL FP FL inconclusive, ClpP mod -2.1% and gsp ag 0%.
`O=C(Cn1nnc(-c2ccc(Cl)cc2)n1)NC1CCS(=O)(=O)C1` (configuration not stated) gave gsp antag 7%, TRPML1 agonist 3.2, ClpP mod 0.3%, gsp ag -1% and TRPML1 blocker 9.
`Cc1ccccc1C(=O)NC1CC2CCCC(C1)N2C(=O)Nc1ccccc1` (configuration not stated) gave gsp antag -1%, TRPML1 agonist -0.8, Menin MLL FP FL 0.8, gsp ag -11% and TRPML1 blocker 5.
Screening Cc1sc2nc(C)n(/N=C/c3ccccc3O)c(=O)c2c1C returned gsp antag -14%, TRPML1 agonist -0.2, Menin MLL FP FL 1.5, ClpP mod -2.9%, gsp ag 7% and TRPML1 blocker 4.
Screening CC(NC(=O)Cc1ccccc1)c1ccc(F)cc1 (configuration not stated) returned gsp antag 0%, TRPML1 agonist -0.2, Menin MLL FP FL 6.4, ClpP mod 1.2%, gsp ag -1%[15.4 µM] and TRPML1 blocker 8.
For COc1ccc(CC(=O)OCC(=O)NNC(=O)c2ccccc2)cc1 the results were gsp antag 8%, TRPML1 agonist 0.1, ClpP mod -2.4%, gsp ag -36%[inhibitor] and TRPML1 blocker -23.
For O=C(NC1CCCC1)C1CCCN1C(=O)Oc1ccccc1 (configuration not stated) the results were gsp antag 8%, TRPML1 agonist 0.6, Menin MLL FP FL 4.1, ClpP mod 3.5%, gsp ag -13% and TRPML1 blocker -8.
CCc1nnc(NC(=O)C2(C)COC(c3ccc(OC)cc3)OC2)s1 (configuration not stated) was read as gsp antag -8%, TRPML1 agonist -0.8, gsp ag -1%[15.4 µM] and TRPML1 blocker 26.
Cc1cccc(CNC(=O)c2oc3c(c2C)-c2nn(Cc4cccc(Cl)c4)cc2CC3)c1 was read as TRPML1 agonist 2.2, ClpP mod -24% and TRPML1 blocker 14.
For O=C(NCC(c1ccco1)N1CCCC1)c1cccc(S(=O)(=O)Nc2ccc(F)cc2)c1 (configuration not stated) the results were gsp antag -6%, TRPML1 agonist 6.3, ClpP mod 2.6%, gsp ag -22% and TRPML1 blocker 1.
For CN(C)n1cccc1/C=C(\C#N)S(=O)(=O)c1ccc(Cl)cc1 the results were gsp antag -30%, TRPML1 agonist 2.0, Menin MLL FP FL 3.5, gsp ag 7%[15.4 µM] and TRPML1 blocker -8.
Screening CCOc1ccc(OCC(=O)Nc2cccc(S(=O)(=O)NC3=NCCC3)c2)cc1 returned gsp antag -12%, TRPML1 agonist -0.2, gsp ag -3%[15.4 µM] and TRPML1 blocker -15.
Cc1cc(=O)n2cn[nH]c2n1 was read as gsp antag 16%, TRPML1 agonist -0.6, gsp ag inconclusive and TRPML1 blocker 13.
Cc1ccc(N2C(=O)CC(Cc3cc(C)cc(C)c3)C2=O)cc1 (configuration not stated) was read as gsp antag 1%, TRPML1 agonist -0.2, Menin MLL FP FL -5.3, ClpP mod 0.8%, gsp ag inconclusive and TRPML1 blocker -20.
COc1ccc(C=NNC(=O)c2ccccc2NS(=O)(=O)c2cccs2)cc1O was read as gsp antag -9%, TRPML1 agonist 0.5, ClpP mod -14%, gsp ag 0% and TRPML1 blocker -8.
O=C1CCC(=O)N1CC(=O)N1c2ccccc2Sc2ccccc21 was read as gsp antag -27%, TRPML1 agonist 0.5, Menin MLL FP FL 2.5, ClpP mod 0.0%, gsp ag 23% and TRPML1 blocker 3.
For COc1cccc(C(=O)Nc2ccc3c(c2)C(=O)N(CC2CCCO2)C3=O)c1 (configuration not stated) the results were gsp antag -16%, TRPML1 agonist 0.5, ClpP mod 0.0%, gsp ag -21% and TRPML1 blocker 1.
Screening CCCC(C(=O)NCc1ccco1)N(Cc1ccco1)C(=O)CNS(=O)(=O)c1ccccc1 (configuration not stated) returned gsp antag 3%, TRPML1 agonist 1.6, Menin MLL FP FL 1.6, gsp ag -4% and TRPML1 blocker 54.
For CCCn1nnnc1NCc1ccc(SC)cc1 the results were gsp antag 0%, TRPML1 agonist -0.1, Menin MLL FP FL 1.9, ClpP mod 1.3%, gsp ag 10% and TRPML1 blocker -6.
COc1ccc(C(=O)C2CCCN(C(=O)c3c4c(nn3C)CCCC4)C2)cc1F (configuration not stated) was read as gsp antag -13%, TRPML1 agonist -0.3, Menin MLL FP FL 0.8, gsp ag 0%[15.4 µM] and TRPML1 blocker -22.
`Cc1ccc(C)c(N2CCN(C(=O)Cn3c(=O)c4cccn4c4ccc(F)cc43)CC2)c1` gave TRPML1 agonist 2.1, ClpP mod 0.1% and TRPML1 blocker -15.
Cc1ccc(CCNC(=O)CCS(=O)(=O)Cc2ccc(C)cc2)cc1 was read as gsp antag -6%, Menin MLL FP FL -1.9, ClpP mod -0.7% and gsp ag -86%[inhibitor].
`Cc1cccc(N2CCN(C(=O)CCNS(=O)(=O)c3ccc4c(c3)oc(=O)n4C)CC2)c1C` gave gsp antag -21%, TRPML1 agonist 0.7, Menin MLL FP FL -2.8, gsp ag -7% and TRPML1 blocker 27.
`COc1cc(C(=O)OCc2cc(=O)oc3c(C)c(C)ccc23)ccc1OC(F)F` gave gsp antag -7%, TRPML1 agonist -1.6, Menin MLL FP FL 1.2, ClpP mod -0.7%, gsp ag 20%[15.4 µM] and TRPML1 blocker 0.
For CCc1ccc[n+](-c2nc3ccccc3nc2C(=C=[N-])C#N)c1 the results were gsp antag -6%, TRPML1 agonist 1.2, Menin MLL FP FL inconclusive, ClpP mod 15%, gsp ag inconclusive and TRPML1 blocker 1.
`O=C(O)c1ccccc1C(=O)Nc1nc(-c2ccccc2)cs1` gave gsp antag 0%, Menin MLL FP FL 5.2, ClpP mod -0.5% and gsp ag -1%.
For Cc1sc2ncn(CC(=O)N(CC(=O)NC3CCCC3)Cc3cccs3)c(=O)c2c1C the results were gsp antag -27%, TRPML1 agonist 1.1, Menin MLL FP FL 5.9, ClpP mod 0.5%, gsp ag 1% and TRPML1 blocker 14.
